Screening results as filed in PubChem.
VCAM-1 up imaging: enhancers of VCAM-1 display on endothelial cells, imaging, high-content imaging, pooled HUVEC, TNFa stimulus (AID 457); Pooled HUVEC, TNFa-induced VCAM-1 immunofluorescence imaging; hits of this screen are not shown here; calls only; 10,000 tested, 0.2% active;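 active means a top-ranked rise in VCAM-1 staining upheld on image or statistical review; inactive means the rest, including candidates rejected on review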;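 further: compounds tested at 5 µM in the well; cells exposed to compound for 24 hours before fixing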
FPRL1 binder: human FPRL1 ligands by binding competition, primary screen, cell-based, FPR counter-screen, flow cytometry; inhibition, %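 (tested at 6.7 µM)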; N-formyl peptide receptor 2 (Homo sapiens), P25090; 24,000 tested, 0.3% active; FPRL1-expressing cells, fluorescent ligand binding inhibition;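 further: 0% = buffer alone and 100% = receptor blocker peptide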
Target sequence (P25090 whole entry, looked up): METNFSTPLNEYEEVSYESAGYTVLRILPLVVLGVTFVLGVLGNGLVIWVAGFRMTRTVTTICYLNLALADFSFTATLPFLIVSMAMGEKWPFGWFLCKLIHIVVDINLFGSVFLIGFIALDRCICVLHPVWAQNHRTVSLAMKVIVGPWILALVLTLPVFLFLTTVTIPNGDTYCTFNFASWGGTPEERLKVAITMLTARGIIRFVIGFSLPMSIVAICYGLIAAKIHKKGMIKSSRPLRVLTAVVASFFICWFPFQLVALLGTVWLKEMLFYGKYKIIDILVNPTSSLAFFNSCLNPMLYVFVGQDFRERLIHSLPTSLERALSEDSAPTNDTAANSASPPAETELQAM
VCAM-1 inhibition: inhibitors of TNFa-induced VCAM-1 surface display, cell-based, plate reader, pooled HUVEC, TNFa stimulus (AID 454); HUVEC TNFa-induced VCAM-1 surface immunofluorescence, plate reader; numbers were filed only for top-ranked candidate wells; inhibition, % at 5 µM; 10,000 tested, 0.2% active;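 active means compound among top-ranked inhibitors of TNF-induced VCAM-1 adhesion protein staining, with the hit upheld by image or statistical review; inactive means the rest, including hits rejected on review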;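 further: 0% = TNFa with vehicle and 100% = cells without TNFa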
FPR binder: human FPR ligands by binding competition, primary screen, cell-based, FPRL1 counter-screen, flow cytometry; fMet-Leu-Phe receptor (Homo sapiens), P21462; FPR-expressing cells, fluorescent ligand binding; inhibition, %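 (tested at 6.7 µM)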; 24,000 tested, 0.74% active;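 further: 0% = buffer wells and 100% = receptor blocker peptide wells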
Target sequence (P21462 whole entry, looked up): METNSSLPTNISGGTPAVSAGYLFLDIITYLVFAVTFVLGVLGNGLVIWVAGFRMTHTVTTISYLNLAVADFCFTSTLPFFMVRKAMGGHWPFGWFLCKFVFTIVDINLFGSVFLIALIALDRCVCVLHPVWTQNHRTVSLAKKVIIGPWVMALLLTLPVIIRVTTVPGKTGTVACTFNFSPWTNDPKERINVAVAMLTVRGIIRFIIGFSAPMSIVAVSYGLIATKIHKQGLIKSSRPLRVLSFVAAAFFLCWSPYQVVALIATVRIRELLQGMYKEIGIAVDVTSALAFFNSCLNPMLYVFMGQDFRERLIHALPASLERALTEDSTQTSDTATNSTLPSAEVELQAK
VCAM-1 down imaging: inhibitors of TNFa-induced VCAM-1 surface display, imaging, high-content imaging, pooled HUVEC, TNFa stimulus (AID 456) | HUVEC TNFa-induced VCAM-1 surface expression, immunofluorescence imaging; numbers were filed only for top-ranked candidate wells | one-dose inhibition, % at 5 µM; IC50 in µM for titrated hits | 10,000 tested, 0.2% active;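 active means top tenth filtered wells with inhibition above zero that passed visual or statistical confirmation; inactive means the rest, including hits rejected on review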;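 further: 0% = stimulated vehicle wells and 100% = unstimulated cells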
* = called active by the depositor; i = inactive; / = no result given.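 How the source made its calls, unless noted: active means mean above 30%; inconclusive means self-fluorescent; inactive means the rest.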 An excerpt; the hit share may differ from the screen's.

SMILES	VCAM-1 up imaging	FPRL1 binder	VCAM-1 inhibition	FPR binder	VCAM-1 down imaging
CCCCN(CC)S(=O)(=O)c1ccc2c(c1)CCCN2C(C)=O	i	-10.3	i	-5.7	i
O=C(Cn1cnc2ccccc2c1=O)NCC(=O)N1CCN(c2ccccn2)CC1	/	-9.2	/	-3.4	/
CCSC1=NCN(CCCC(=O)O)CN1	i	-7.7	i	-6.0	i
O=C(c1ccc(Cl)cc1)N(Cc1cccs1)C1CCS(=O)(=O)C1 (configuration not stated)	i	45.5*	i	27.5	i
COCCNC(=O)CN1CCOc2ccccc21	/	-10.0	/	-8.6	/
CCN(CC)C(=O)c1ccc(NS(=O)(=O)c2ccccc2)cc1	i	4.3	i	-10.9	i
CCCN1Cc2cccc(C(=O)NCc3ccc4c(c3)OCO4)c2C1=O	/	-0.3	/	-7.7	/
COc1ccc(C2CC(c3ccc(OC)cc3)n3nc(N)nc3N2)cc1 (configuration not stated)	i	-0.1	i	-1.6	i
O=C(NCc1ccc(F)cc1)C1CCC(=O)N1C1CCCCC1 (configuration not stated)	/	15.2	/	3.9	/
CC(C)C(NC(=O)c1ccc(S(=O)(=O)N2CCOCC2)cc1)c1nc2ccccc2[nH]1 (configuration not stated)	i	-2.6	i	1.1	i
O=C1CC(N2CCOCC2)C(=O)N1c1ccccc1Cl (configuration not stated)	i	8.5	i	4.1	i
O=C1NCCN1C(=O)C12CC3CC(CC(C3)C1)C2	/	-2.9	/	0.2	/
O=C(CS(=O)(=O)Cc1ccccc1)N1CCc2ccccc2C1	i	-2.4	i	-3.6	i
Cc1ccc(C)c(N2CCN(C(=O)COc3cc(=O)n(C)c4ccccc34)CC2)c1	/	-2.7	/	-2.5	/
CC(=O)N[C@@H](CS)C(=O)O	i	-3.3	i	-4.2	i
O=C(CSc1nc2ccccc2c(=O)[nH]1)c1ccc(O)c(O)c1	/	1.8	/	-4.0	/
c1ccc2c(c1)nc(-c1ccncc1)n1nnnc21	i	-2.1	i	2.1	i
C(=C\c1ccccc1)/CN1CCN(C(c2ccccc2)c2ccccc2)CC1	i	-10.9	i	-2.8	i
O=C(CNc1ccc(Oc2ccccc2)cc1)N1CCOCC1	i	7.1	i	9.6	i
O=C(Nc1cccnc1)Nc1ccc(F)c(Cl)c1	i	2.1	i	-3.8	i
COc1ccc(-c2ccc(-c3nnc(-c4ccncc4)o3)cc2)cc1	i	-4.1	i	-7.8	i
COc1ccccc1CNC(=O)C1CCCN(S(=O)(=O)c2c(C)[nH]c(=O)[nH]c2=O)C1 (configuration not stated)	/	-5.0	/	-3.6	/
O=C1C(=O)N(CCCn2ccnc2)C(c2cccnc2)/C1=C(/O)c1ccc(F)cc1 (configuration not stated)	/	5.4	/	8.9	/
COc1ccccc1CNC(=O)CCn1c(=O)[nH]c2ccsc2c1=O	i	-2.1	i	0.5	i
Cc1ccc(Nc2cc(C)nc3nc(C)nn23)cc1	/	1.9	/	1.2	/
COc1ccc(C/C(O)=C(\C#N)c2nc3ccccc3s2)cc1	i	5.3	i	-5.9	i
CC1=C(C(=O)NCCN2CCOCC2)C2(CCC(C)CC2)OC1=O (configuration not stated)	/	-3.6	/	1.3	/
O=C(Cn1ncc2c1-c1ccccc1OC2)N(Cc1ccco1)C1CCCCC1	/	2.6	/	4.2	/
O=C(COC(=O)C1=COCCO1)Nc1ccccc1Oc1ccccc1	i	0.6	i	-2.8	i
CCOC(=O)N1CCC(Nc2c(NCCN3CCN(c4cccc(Cl)c4)CC3)c(=O)c2=O)CC1	/	8.0	/	7.8	/
CCOc1ccccc1-n1c(SCC(=O)Nc2ccc(CC)cc2)nc2n[nH]c(C)c2c1=N	/	-2.7	/	-1.5	/
CCC(CC)C(=O)Nc1c2c(nn1-c1ccc(OC)cc1)CS(=O)(=O)C2	/	-3.0	/	1.3	/
Cc1cccc(N2CCN(CCNC(=O)c3cc4c(s3)CS(=O)(=O)C4)CC2)c1C	/	-4.0	/	1.8	/
CCOc1ccc(-c2cc(C(=O)N3CCN(C)CC3)c3ccccc3n2)cc1	/	2.2	/	-0.8	/
Cc1cc(NC(=O)c2ccc(Cl)cc2)no1	i	3.0	i	-3.9	i
CCC(C)(C)NC(=O)CN(C(=O)c1snc(C(N)=O)c1N)c1ccc2c(c1)OCO2	i	-4.6	i	27.9	i
O=C(NCc1ccc(F)cc1)c1noc2c1CCCC2	/	1.8	/	10.9	/
CCc1ccc(NC(=O)CS(=O)CC(=O)NC(C)CCc2ccco2)cc1 (configuration not stated)	i	0.0	i	-2.9	i
Cn1c(=O)[nH]c(=O)c2c1nc(N1CCNCC1)n2CCOc1ccccc1	i	2.9	i	-8.5	i
COc1cc(NC(=O)c2ccc3c(=O)n(Cc4ccco4)c(=S)[nH]c3c2)cc(OC)c1OC	/	1.4	/	0.2	/
COC(=O)Nc1ccc(C)c2nsnc12	/	1.8	/	0.8	/
O=C(c1cccc(N2C(=O)C3CC=CCC3C2=O)c1)N1CCCCCC1 (configuration not stated)	/	-0.4	/	-4.9	/
COCCCNC(=O)CCNS(=O)(=O)c1ccc(C)cc1	/	6.3	/	5.2	/
CCCN(CCC)C(=O)Cn1c(=O)n(CCCCC(=O)NCc2ccco2)c(=O)c2ccccc21	/	10.0	/	4.7	/
Cn1c(C(=O)NC2CC2)cc2c(=O)n(C)c3ccccc3c21	/	3.5	/	0.5	/
O=C(O)c1cccn2c(=O)c3ccccc3nc12	i	3.5	i	2.3	i
Cc1c(C(=O)N2CCOCC2)oc2ccc(S(=O)(=O)N3CCCCCC3)cc12	/	1.4	/	-1.1	/
Nc1nc2ccccc2n1C(=O)CCc1ccccc1	i	-2.0	i	3.1	i
CC1C(=O)CC(c2ccccc2)N(C)C1c1ccccc1 (configuration not stated)	/	10.1	/	-2.7	/
Cc1ccc(C)c(-n2c(Cc3cc(=O)[nH]c(=O)[nH]3)nnc2SCC(=O)NCc2ccco2)c1	i	5.9	i	-5.6	i
O=C(NCCN1CCOCC1)C1CCC(=O)N1Cc1ccccc1Cl (configuration not stated)	i	10.0	i	9.6	i
COC(=O)c1ccc2c(=O)n(CCCCCC(=O)NCc3ccccn3)c(=O)[nH]c2c1	/	0.1	/	-1.3	/
CCOc1ccc(CCNC(=O)C2CCC(=O)N2C2CCCCC2)cc1OCC (configuration not stated)	/	-2.5	/	6.3	/
Cc1ccc(Cn2c(SCC(=O)NCc3ccco3)nc3ccsc3c2=O)cc1	/	4.0	/	5.3	/
COC(=O)CSc1nnc(CNC(=O)c2ccccc2OC)n1-c1ccc(OC)cc1	/	0.0	/	0.3	/
CCCCCCC(c1c(C)n(C)n(-c2ccccc2)c1=O)c1c(C)n(C)n(-c2ccccc2)c1=O	i	-1.2	i	2.6	i
CCN(CCCNC(=O)C1CCCN(S(=O)(=O)c2cnc[nH]2)C1)c1ccccc1 (configuration not stated)	i	-5.6	i	-1.3	i
COc1cccc(C2C(C(N)=O)=C(C)Nc3nc(-c4ccccc4Cl)nn32)c1 (configuration not stated)	i	4.6	i	1.2	i
CC(C)(C)c1ccc2c(c1)OCC(C(=O)O)O2 (configuration not stated)	i	-3.2	i	-8.6	i
CCOC(=O)C1=C(C)Nc2ncnn2C1c1ccccc1F (configuration not stated)	i	1.7	i	-0.5	i

Further entries follow:
SMILES	VCAM-1 up imaging	FPRL1 binder	VCAM-1 inhibition	FPR binder	VCAM-1 down imaging
Cc1ccc(CS(=O)(=O)CCC(=O)N2CCOCC2)cc1	/	-1.1	/	-2.5	/
O=C(O)c1cccc2c1C(=O)N(C1CCCCC1)C2	/	-1.4	/	1.8	/
O=C(c1cnn2ccccc12)N1CCc2ccccc21	/	-1.4	/	2.4	/
CC(C)(C)C1CCc2onc(C(=O)Nc3ccc(F)cc3F)c2C1 (configuration not stated)	/	-0.5	/	0.4	/
COC(=O)CN(c1ccc(C)c(Cl)c1)S(C)(=O)=O	i	1.5	i	-14.4	i
CCCN1CCN(C(=O)CCCNC(=O)Cn2cnc3sc(C)c(C)c3c2=O)CC1	/	2.9	/	1.3	/
CN(C)c1ccc(NC(=O)CN2CCN(CC(=O)Nc3ccc(F)cc3)CC2)cc1	/	-1.3	/	-1.0	/
CCOC(=O)NCc1ccc2c(c1)cc(C)n2C	/	-3.2	/	-3.5	/
COC(=O)Cn1cnc2sc(C)c(S(=O)(=O)N3CCN(c4ccccc4OC)CC3)c2c1=O	/	-6.0	/	-1.2	/
COc1ccc(CCN(Cc2cc3cccc(C)c3[nH]c2=O)C(=O)N2CCCC2)cc1OC	i	1.0	i	-6.7	i
CCOC(=O)N1CCN(C(=O)C(CC(C)C)NC(=O)C2CCCCC2)CC1 (configuration not stated)	/	-6.6	/	-4.9	/
COc1ccc2oc(=O)c(C(=O)N3CCN(c4ccccc4F)CC3)cc2c1	i	10.4	i	7.7	i
CCOc1ccc(OCc2ccc(C(=O)Nc3cccc(C)n3)o2)cc1	i	3.6	i	-1.2	i
Cc1cc(=O)n(CCCO)c(O)c1C#N	/	3.0	/	4.7	/
O=C(Nc1ccccc1-c1ccccc1)NC1CCN(CC(=O)N2CCOCC2)CC1	i	-6.9	i	0.4	i
CCN(C(=O)Cn1c(=O)n2nc(CCn3nc(C)cc3C)nc2c2ccccc21)c1cccc(C)c1	/	-1.4	/	-0.1	/
COc1ccccc1NC(=O)CSc1nnnn1-c1ccc2c(c1)OCO2	i	-6.7	i	-1.5	i
CCOC(=O)N1CCN(S(=O)(=O)c2ccc(C(=O)Nc3sc4c(c3C#N)CCC4)cc2)CC1	/	-2.7	/	4.0	/
c1ccc2[nH]c(-c3cscn3)nc2c1	i	-2.3	i	-2.6	i
COc1ccc(CNC(=O)CCn2c(=O)oc3ccccc32)cc1	/	14.6	/	6.3	/
CCOP(=O)(c1ccc(N(C)C)cc1)C(O)c1ccccc1OC (configuration not stated)	i	3.5	i	-5.8	i
CCC(c1nnc(SCC(=O)NCC2CCCO2)n1Cc1ccccc1)N(C)C (configuration not stated)	i	2.9	i	-0.2	i
CC(n1cnnn1)C12CC3CC(CC(C3)C1)C2 (configuration not stated)	i	7.5	i	-1.9	i
Cc1nnc(SCC(=O)NCc2ccco2)[nH]c1=O	/	-15.3	/	1.2	/
CCN(C(=O)CCc1nc(-c2ccccc2F)no1)c1cc(OC)ccc1OC	i	-6.5	i	-1.5	i
CC(C)NC(=O)CCNS(=O)(=O)c1ccc(Br)cc1	/	-4.8	/	-10.2	/
CCN1CCN(C(c2ccc(F)cc2)c2nnnn2Cc2cccs2)CC1 (configuration not stated)	i	-10.6	i	-2.8	i
CCOC(=O)c1c(C)c(C(=O)N(C)C2CCCCC2)c(C)n1C	/	8.6	/	0.1	/
CCOC(=O)c1ccccc1NC(=O)c1ccc(NS(C)(=O)=O)cc1	i	-5.1	i	-0.2	i
Cc1ccc(C2C(C#N)=C(N)Oc3cc4c(cc32)OCO4)cc1 (configuration not stated)	i	1.5	i	3.4	i
CCOC(=O)Cn1c(CN2CCN(c3cccc(Cl)c3)CC2)nc2c1c(=O)[nH]c(=O)n2C	i	-6.7	i	-8.2	i
COc1cc2[nH]c(=O)n3nc(-c4ccccc4)nc3c2cc1OC	/	-8.4	/	-4.5	/
CCOC(=O)c1c(C)oc2ccc(O)c(CN3CCCCC3)c12	i	-3.6	i	-1.4	i
CC1CN(Cc2nc3c(c(=O)n(C)c(=O)n3C)n2CC(=O)c2ccccc2)CC(C)O1 (configuration not stated)	/	3.9	/	-3.3	/
CCN1C(=O)c2ccccc2S(=O)c2ccc(C(=O)NC3CC3)cc21 (configuration not stated)	i	-1.4	i	2.4	i
O=C(NC1CC1)c1ccc2c(c1)ncn2C1CCCC1	/	13.3	/	-1.5	/
O=C(NCc1ccco1)C1CCCN(S(=O)(=O)c2cccc3nsnc23)C1 (configuration not stated)	/	4.3	/	8.0	/

Sorted by length of the SMILES (ascending): some entries from above.
SMILES	VCAM-1 up imaging	FPRL1 binder	VCAM-1 inhibition	FPR binder	VCAM-1 down imaging
CC(n1cnnn1)C12CC3CC(CC(C3)C1)C2 (configuration not stated)	i	7.5	i	-1.9	i
O=C(COC(=O)C1=COCCO1)Nc1ccccc1Oc1ccccc1	i	0.6	i	-2.8	i
COc1cc2[nH]c(=O)n3nc(-c4ccccc4)nc3c2cc1OC	/	-8.4	/	-4.5	/
CCc1ccc(NC(=O)CS(=O)CC(=O)NC(C)CCc2ccco2)cc1 (configuration not stated)	i	0.0	i	-2.9	i
Cc1ccc(C)c(-n2c(Cc3cc(=O)[nH]c(=O)[nH]3)nnc2SCC(=O)NCc2ccco2)c1	i	5.9	i	-5.6	i
